# Sa helicase inh = S. aureus DNA helicase inhibition; purified S. aureus helicase, fluorescence unwinding assay; about half of the hits fall short of the stated cut; AID 485395; inhibition, %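 (tested at about 80 µM)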; hit rate 0.05% among 120,000;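 active means both duplicates at 50% or more, or one of them with a favoured structure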;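 further: 0% = mean of negative control wells and 100% = mean of positive control wells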
# MgrA DNA FP = S. aureus MgrA-DNA binding modulation; fluorescence polarization; inhibition, %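 (about 10 µg/mL by stock and volumes)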; hit rate 0.13% among 84,000;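 active means above 50% in either of two replicates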;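 further: 0% = protein plus DNA without compound and 100% = DNA alone without protein; higher means less MgrA bound to DNA so lower polarization; one replicate is shown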
# Active calls of the source: *; . = not tested or not shown; & = joins results of further samples. An excerpt (hit frequency here may not be typical).
SMILES,Sa helicase inh,MgrA DNA FP
Cn1c(=S)oc2ccccc21,-11,.
COc1ccc(C(=O)CC(Sc2ccccc2)c2ccc(C(C)C)cc2)cc1 (stereo not drawn),.,1.5
CC(C)Oc1cccc(C(=O)N2CCCCC2)c1,-1,-0.6
Cc1sc2ncn3nc(-c4ccc5c(c4)OCO5)nc3c2c1C,8,4.1
COC(=O)C(C)Oc1ccc(N2C(=O)c3ccccc3C2=O)cc1 (stereo not drawn),9,0.8
CCOC(=O)C(C)Oc1ccc2c(C)cc(=O)oc2c1 (stereo not drawn),2,.
CCCCNc1ccc(C(F)(F)F)cc1N,7,.
COc1cccc(C(=O)CN2C3=NCCCN3c3ccccc32)c1,-8,0.6
Cc1ccsc1C(=O)OCC1CCCO1 (stereo not drawn),2,0.1
Cc1[nH]c2ccccc2c(=O)c1CN1CCCC1,14,.
Cc1ccc(S(=O)(=O)Nc2c(C)n(C)n(-c3ccccc3)c2=O)cc1,33,.
O=C(Oc1ccccc1)c1ccc2nccnc2c1,12,-2.7
CCn1cc(C(=O)N(C)Cc2cccc(Cl)c2)c(=O)c2ccc(C)nc21,20,.
O=C(/C=C/c1ccccc1)Nc1nc2c(s1)CCCC2,-3,0.0
Cc1[nH]nc2c1C(c1ccccc1)NC2=O (stereo not drawn),20,.
COCc1cc(=O)[nH]c(/N=C(\N)Nc2ccc(C)cc2)n1,19,.
CSC(=NCCSCc1c(Cl)cccc1Cl)NC#N,.,0.2
Cc1ccc(N(C(C)C(=O)Nc2ccc(S(=O)(=O)N3CCOCC3)cc2)S(C)(=O)=O)cc1C (stereo not drawn),2,0.0
O=C(CCCO)NCc1ccc(F)cc1,.,-3.6
CCN(CC)S(=O)(=O)c1cc(C(=O)N2CCc3ccccc32)ccc1Cl,13,-0.2
Cn1nc(C(=O)Nc2ccccc2C(=O)NC2CCCC2)ccc1=O,7,.
CCN1CCN(CCC(=O)Nc2sc3c(c2C#N)CCCCC3)CC1,8,.
COc1ccc(Nc2ccccc2NC(=O)c2cc3ccccc3o2)cc1,0,.
Cc1cc(SCC(N)=O)nc(=O)[nH]1,10,.
CCOC(=O)c1ccc(N2CCCCC2)c(N)c1,.,0.3
CC1(C)CC(=O)c2c(SCc3ccc(Cl)cc3)sc(C#N)c2C1,.,-1.3
CCC(=O)Nc1ccc2nn(-c3ccc(CC)cc3)nc2c1,5,0.7
O=c1oc2ccccc2cc1S(=O)(=O)c1ccccc1,-10,.
COC(=O)/C(C#N)=C/c1cccc(O)c1,4,.
CCOC(=O)C1=C(CSc2nnc(Cc3ccc(OC)cc3)n2N)NC(=O)NC1C (stereo not drawn),-3,.
CCN(CC)S(=O)(=O)c1ccc(C(=O)OC(C)C(=O)NC2CCCCC2)cc1 (stereo not drawn),-8,.
O=C(CCC(=O)c1cccs1)OCc1nnc(-c2ccccc2)o1,-4,.
CC(C)(C)C(=O)OC[C@H]1O[C@@H](n2cnc3c(N)ncnc32)C[C@@H]1OC(=O)C(C)(C)C,.,-1.1
Oc1ccccc1-c1nc(N2CCCC2)c2ccccc2n1,-2,3.5
O=C(COc1ccc(Cl)cc1)Oc1ccccc1,10,-2.1
COC(=O)c1cc(N)c(Cl)s1,7,10
O=C(O)c1cccc(N2C(=O)C3CC=CCC3C2=O)c1 (stereo not drawn),5,.
CCOC(=O)C1CCN(c2nc3ccccc3o2)CC1,7,.
O=C(Cc1ccc(Cl)c(Cl)c1)N1CCC2(CC1)Nc1ccccc1S(=O)(=O)N2,0,.
O=C(NCc1cn2cc(Cl)ccc2n1)c1ccccc1,-7,.
N#Cc1ccc(CC(C#N)c2ccccc2)cc1 (stereo not drawn),-9,.
Cc1cc2oc(=O)cc(CN3CCN(C(=O)C4CCCO4)CC3)c2cc1Cl (stereo not drawn),31,.
N#Cc1c(-n2cccc2C#N)sc2c1CCCC2,.,0.8
COC(=O)COc1ccc(/C=C2\C(=O)NC(=O)N(c3ccc(F)cc3)C2=O)cc1OC,.,2.0
CCOC(=O)c1c(C)n(-c2ccccc2)c2ccc(OC(=O)c3ccccc3NC(=O)CC)cc12,0,2.6
CCN(CC)S(=O)(=O)c1ncn[nH]1,-6,-0.9
Cc1c(NC(=O)c2ccc(Br)o2)cccc1-c1nc2cccnc2s1,-9,.
Cn1c(SCc2nc3ccc(Cl)cc3n2CCO)nnc1C(F)(F)F,-4,.
O=C(CSc1nncc2ccccc12)c1ccc(Cl)cc1Cl,-19,-1.8
O=C(/C=C/c1cn(-c2ccccc2)nc1-c1cccnc1)N1CCCC1,8,-1.2
O=c1c(Cl)c(NC2CC2)cnn1-c1ccccc1,7,-1.2
O=C(Nc1ccc(Cl)c2c1C(=O)c1ccccc1C2=O)c1ccc([N+](=O)[O-])cc1Cl,.,-1.9
O=C(Nc1ccccc1)C(=S)N1CCCC1,2,-4.0
Cc1onc(-c2c(F)cccc2Cl)c1C(=O)N[C@@H]1C(=O)N2C(C(=O)O)C(C)(C)S[C@H]12 (stereo partly drawn),.,-0.6
CS(=O)(=O)N1CCN(CC(O)Cn2c3ccccc3c3ccccc32)CC1 (stereo not drawn),14,.
CC1=CCC2COC(c3ccccn3)C1C2 (stereo not drawn),2,3.0
CN(C)c1ccc(-n2cccc2)cc1,5,-2.5
C#CCN1C(=O)C2C(C(=O)NC)C3C=CC2(O3)C1C(=O)NCc1ccc(OC)cc1 (stereo not drawn),-1,1.8
Cc1cc(S(=O)(=O)Cc2c(Cl)cccc2Cl)c(Cl)cc1Cl,.,1.8
O=C(Cc1cn2ccsc2n1)N/N=C/c1cn(-c2ccccc2)nc1-c1cccs1,6,.

# The results go on.
SMILES,Sa helicase inh,MgrA DNA FP
Cc1ccc(Oc2cc(C#N)c(C#N)cc2-n2nnc3ccccc32)cc1C,-6,-0.3
Cc1ccc(/C=C/C(=O)CCC(=O)O)cc1,.,-0.5
CCN(CC)S(=O)(=O)c1ccc2nc(NC(=O)c3cccs3)sc2c1,-30,.
CCOc1ccc2nc(N(Cc3ccccc3)C(=O)c3ccco3)sc2c1,6,.
Cc1ccccc1N=C(N)N=C(N)N,.,-0.5
NC(=O)CSC1=Nc2ccccc2C2=NC(c3ccccc3)C(=O)N12 (stereo not drawn),4,0.5
C=CCNC(=S)Nc1ccc(C)cc1OC(F)F,0,-2.1
Nc1[nH]c(=O)ncc1F,.,-0.6
COc1ccc(NC(=O)CSc2nc3c(cc2C#N)C(=O)CCC3)cc1,17,.
NC(=O)c1cnccn1,.,-1.2&-2.0
Cc1onc(-c2ccccc2Cl)c1C(=O)NN,23,.
Cc1onc(-c2ccccc2Cl)c1C(=O)Nc1nnc(SCC(=O)Nc2ccccc2F)s1,20,.
Cc1nc(-c2ccncc2)nc(NCCNc2cc(C(F)(F)F)ccn2)c1Cl,.,-0.6
CC1CN(Cn2nc(-c3ccc4c(c3)OCO4)oc2=S)CC(C)O1 (stereo not drawn),-11,.
C=C=CSc1nnnn1-c1ccc(Cl)cc1,13,.
COCCN1CN(Cc2ccco2)CC2=C1CC(c1ccccc1)CC2=O (stereo not drawn),-2,.
c1cnc2c(c1)nnn2C1CC1,.,-0.8
CCOC(=O)c1sc(S(C)(=O)=O)c2c1CCc1conc1-2,.,0.6
CCCCN(C)S(=O)(=O)c1ccc2[nH]c(=O)ccc2c1,1,-1.2
COc1ccccc1CN1C(=O)NC(CCc2ccccc2)C1=O (stereo not drawn),-16,.
CCOC(=O)/C=C1\NC(=O)CS1,.,0.3
O=C1CC(c2ccccc2)CC2=C1C=Nc1ccccc1N2 (stereo not drawn),-3,-8.5
COC(=O)c1scc(N)c1C(=O)OC,.,3.1
CCCCCCCC/C=C\C/C=C\C/C=C\CCCC(=O)O,.,-0.2
CC1CCN(C2=NS(=O)(=O)c3ccccc32)CC1,25,.
COCCn1c(-c2ccncc2)nn(CO)c1=S,-16,.
CC1=NN(C)C(=O)C1Cc1c(Cl)cccc1Cl (stereo not drawn),.,3.0
Cc1ccc(Nc2nc(N)nc(CSc3nnc(-c4ccncc4)o3)n2)cc1,3,.
CC(C)S(=O)(=O)c1cnc(N2CCOCC2)nc1N,.,-1.4
Cn1c(=O)n(N)c(=O)c2c(-c3ccc(F)cc3F)c3c(nc21)-c1ccccc1C3=O,-17,.
O=C(Cc1ccccc1OC(=O)c1ccccc1)c1ccccc1,5,0.3
O=C(O)CSc1c[nH]c2ccccc12,3,-0.8
COc1ccc2c(-c3ccccc3)cc(N3CCNC(=O)C3)nc2c1,11,.
CSc1ncccc1C(=O)NCCc1ccccc1,-6,.
CC(=O)c1ccccc1OC(=O)c1c(-c2c(Cl)cccc2Cl)noc1C,.,0.2
Cc1ccc(NNC(=O)c2cccs2)cc1C,5,.
Cc1ccc(S(=O)(=O)Nc2nc(C)c(NC(=O)NC3C=NN=C3)s2)cc1,2,1.9
CN(CC(=O)NC(=O)Nc1ccc2c(c1)OCCO2)Cc1cccc(F)c1,-16,.
Cc1c(Br)sc2sc(Br)c(C)c12,20,.
CCOC(=O)NC(=S)Nc1ccc(N2CC(C)OC(C)C2)cc1 (stereo not drawn),.,-1.6
COC(=O)c1ccc(-c2nc3ccc(C)cc3o2)cc1,7,4.0
COc1ccccc1CCC(=O)O,.,0.0
Cc1[nH]n(C(N)=S)c(=O)c1C(c1ccccc1)C(C#N)C#N (stereo not drawn),4,.
Cc1cc(C)c2c(n1)sc1c(=O)n(C(C)C(=O)NC(N)=O)cnc12 (stereo not drawn),13,.
COCC(=O)Nc1ccc(-c2cn3cccnc3n2)cc1,15,3.1
COC(=O)C1=C(O)/C(=C\c2ccccc2)N=C1C,7,.
CCSc1nnc(-c2ccccc2)c(-c2ccccc2)n1,6,1.5
Cc1ccc(-c2csc(/C=C3/NC(=O)CS3)n2)cc1,7,-0.3
O=C(NCCc1ccccc1)c1ccc(C(F)(F)F)cc1,17,3.6
COc1cc(/C=C2\C(=O)NC(=S)N(c3ccc(Cl)cc3)C2=O)ccc1OCC(=O)O,.,23
Nc1ccc2nc(C3CCCCC3)[nH]c2c1,-5,-5.0
C=CCN(CC=C)S(=O)(=O)c1ccc(C(=O)Nc2nnc(-c3ccc(OC)cc3OC)o2)cc1,8,.
O=C1CCCCCCCCCCC1CN1CCOCC1 (stereo not drawn),.,-6.3
Nc1nc2ccccc2n1C(=O)Cc1ccccc1,-7,1.4
CCOc1cccc(CN(C(C)=O)c2ccc3[nH]c(=O)[nH]c3c2)c1OCc1ccccc1,-4,0.0
COc1ccccc1N1C(=O)C2C3C=CC(C3)C2C1=O (stereo not drawn),-6,.
O=C1NC(=O)c2cccc3cccc1c23,7,.
CC(C)Oc1nc(-c2ccccc2)nc(-c2ccccc2)c1C#N,.,0.5
N#Cc1c(-c2ccc3c(c2)OCO3)cc(-c2ccc(F)cc2)nc1N,15,-1.9
N=C1C(c2nc(-c3ccc(Br)cc3)cs2)=C(O)CN1C1CCS(=O)(=O)C1 (stereo not drawn),-21,.

# Additional entries
SMILES,Sa helicase inh,MgrA DNA FP
COC(=O)c1c(N)sc(/C(C)=C/C#N)c1C,13,-0.8
COc1ccccc1/C=C(/C(=O)OCC(=O)Nc1oc(C)c2c(C)n[nH]c(=O)c12)c1ccccc1,-3,.
O=C(Nc1cccnc1)C1c2ccccc2C(=O)N2CCc3ccccc3C12 (stereo not drawn),9,.
CN=C(Nc1cccc(Cl)c1)SC,.,-2.1
COC(=O)C1=C(C)NC2=C(C(=O)CC(C)(C)C2)C1c1ccncc1 (stereo not drawn),7,0.1
CCOC(=O)c1c(NC(=O)c2ccc(C)c([N+](=O)[O-])c2)sc(C(=O)Nc2cc(C(F)(F)F)ccc2Cl)c1C,.,1.7
CC1(C)CC(NCc2ccccc2)CC(C)(C)N1,5,-2.8
NC1=NN(c2c(Cl)cc(Cl)cc2Cl)C(=O)C1,-15,2.7
CCCCCc1ccc(CN)cc1,.,-0.6
Cc1occc1-c1nnc(SCC(=O)NCc2ccc3c(c2)OCO3)n1CC(C)C,13,0.8

# Among those listed so far, these contain an aryl methoxy group.
SMILES,Sa helicase inh,MgrA DNA FP
COc1ccc(C(=O)CC(Sc2ccccc2)c2ccc(C(C)C)cc2)cc1 (stereo not drawn),.,1.5
COc1cccc(C(=O)CN2C3=NCCCN3c3ccccc32)c1,-8,0.6
COc1ccc(Nc2ccccc2NC(=O)c2cc3ccccc3o2)cc1,0,.
CCOC(=O)C1=C(CSc2nnc(Cc3ccc(OC)cc3)n2N)NC(=O)NC1C (stereo not drawn),-3,.
COC(=O)COc1ccc(/C=C2\C(=O)NC(=O)N(c3ccc(F)cc3)C2=O)cc1OC,.,2.0
C#CCN1C(=O)C2C(C(=O)NC)C3C=CC2(O3)C1C(=O)NCc1ccc(OC)cc1 (stereo not drawn),-1,1.8
COc1ccc(NC(=O)CSc2nc3c(cc2C#N)C(=O)CCC3)cc1,17,.
COc1ccccc1CN1C(=O)NC(CCc2ccccc2)C1=O (stereo not drawn),-16,.
COc1ccc2c(-c3ccccc3)cc(N3CCNC(=O)C3)nc2c1,11,.
COc1ccccc1CCC(=O)O,.,0.0
COc1cc(/C=C2\C(=O)NC(=S)N(c3ccc(Cl)cc3)C2=O)ccc1OCC(=O)O,.,23
C=CCN(CC=C)S(=O)(=O)c1ccc(C(=O)Nc2nnc(-c3ccc(OC)cc3OC)o2)cc1,8,.
COc1ccccc1N1C(=O)C2C3C=CC(C3)C2C1=O (stereo not drawn),-6,.
COc1ccccc1/C=C(/C(=O)OCC(=O)Nc1oc(C)c2c(C)n[nH]c(=O)c12)c1ccccc1,-3,.

# Single records, from the list above. Order of values: Sa helicase inh, MgrA DNA FP
# CCCCCc1ccc(CN)cc1 as listed: ., -0.6
# CN=C(Nc1cccc(Cl)c1)SC as listed: ., -2.1
# O=C(Nc1cccnc1)C1c2ccccc2C(=O)N2CCc3ccccc3C12 (stereo not drawn) as listed: 9, .
# COc1ccccc1/C=C(/C(=O)OCC(=O)Nc1oc(C)c2c(C)n[nH]c(=O)c12)c1ccccc1 as listed: -3, .
# CCOC(=O)c1c(NC(=O)c2ccc(C)c([N+](=O)[O-])c2)sc(C(=O)Nc2cc(C(F)(F)F)ccc2Cl)c1C as listed: ., 1.7
